Six1-Eya2 inh = inhibitors of human Six1/Eya2 interaction | Q15475+O00167 | AlphaScreen GST-Six1/His-Eya2 binding, biochemical; hits give low values; control for the full effect not named in the record | activity change, % (test concentration not listed) | 360,000 tested, 0.56% active | AID 651725; in the data active = activity change below about -65%; inconclusive = about -30% to -65%; inactive = above about -30%; note: % is set by controls: 0 for no effect and ±100 for the full control effect; compound concentration not given in the record
Target sequence (O00167 whole entry, looked up): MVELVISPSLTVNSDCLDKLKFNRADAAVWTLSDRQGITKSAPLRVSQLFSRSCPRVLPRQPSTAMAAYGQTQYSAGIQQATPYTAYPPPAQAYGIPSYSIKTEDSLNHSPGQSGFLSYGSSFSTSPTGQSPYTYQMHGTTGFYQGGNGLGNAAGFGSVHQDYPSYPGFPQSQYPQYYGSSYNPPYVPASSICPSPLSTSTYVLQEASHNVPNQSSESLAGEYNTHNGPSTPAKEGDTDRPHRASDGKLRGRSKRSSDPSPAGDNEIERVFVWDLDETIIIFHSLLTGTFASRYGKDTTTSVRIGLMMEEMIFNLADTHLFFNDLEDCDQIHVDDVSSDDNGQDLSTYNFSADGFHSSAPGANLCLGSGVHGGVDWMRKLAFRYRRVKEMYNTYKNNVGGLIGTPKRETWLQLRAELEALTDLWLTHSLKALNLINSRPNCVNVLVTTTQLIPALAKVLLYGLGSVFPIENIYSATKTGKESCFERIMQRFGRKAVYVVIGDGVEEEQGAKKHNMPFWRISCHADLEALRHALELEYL
Target sequence (Q15475 whole entry, looked up): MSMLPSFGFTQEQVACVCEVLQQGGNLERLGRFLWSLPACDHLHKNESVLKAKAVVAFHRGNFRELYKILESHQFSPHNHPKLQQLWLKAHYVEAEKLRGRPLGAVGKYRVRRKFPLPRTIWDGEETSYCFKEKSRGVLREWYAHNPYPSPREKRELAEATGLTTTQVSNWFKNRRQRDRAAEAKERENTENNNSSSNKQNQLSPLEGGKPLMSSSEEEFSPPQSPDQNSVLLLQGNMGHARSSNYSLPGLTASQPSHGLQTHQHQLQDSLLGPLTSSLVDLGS
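Homogeneous AlphaScreen proximity assay pairing GST-Six1 with His-tagged Eya2 (added as 5X mix: 250 nM and 500 nM) in 50 mM Tris pH 8.0, 300 mM NaCl, 1 mM TCEP. Glutathione donor and nickel acceptor beads; 1 h, 37 °C, dark.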
D2 agonist = agonists of human D2 dopamine receptor (beta-arrestin) | P14416 | DiscoveRx PathHunter D2 beta-arrestin, luminescence, 90 min; 100% = 57 uM dopamine signal | activation, % (no concentration beside the values) | 360,000 tested, 0.084% active | AID 624465; in the data active = activation above about 40%; inconclusive = about 15% to 40%; inactive = below about 15%; note: compound concentration not given in the record; the text of the record calls up to 30% inactive
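Agonist mode: compounds alone added to overnight-plated D2 PathHunter cells for 90 min at 37 C, with 57 uM final dopamine (EC100) defining full response. Beta-arrestin recruitment detected by chemiluminescent reagent, read after 1 h at ambient temperature.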
PINK1 expr mod = changes PINK1 expression; 410,000 tested, 0.2% active; Potency, µM (titrated, usually from 76.6 µM), without a hit: top-dose activation (PINK1 increase), actives largely listed as activators; PINK1 immunofluorescence, high-content cytometry, 24 h; active = well fitted activation curve with a large enough effect; inconclusive = small, poorly fitted or top-dose-only effect; inactive = flat fitted curve, though single readings scatter; cell line not stated here;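 note: potency is the fitted concentration of half-maximal effect; % of control where 0% means no effect; nearly all actives have a fitted effect of over 65% in size; a mitochondrial uncoupler was the plate control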
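Stable cell line treated 24 h with compounds at 5 concentrations (CCCP controls), then fixed and immunostained for PINK1 plus nuclear and cell stains; PINK1 immunofluorescence quantified by laser-scanning microplate cytometry.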
D2 PAM = human D2 receptor positive allosteric modulation; DiscoveRx D2 beta-arrestin cells, luminescence, 90 min; 100% = 57 uM dopamine signal; P14416; potentiation, % (concentration not given with the values); 360,000 tested, 0.23% active; active = potentiation of 50% or more; inconclusive = 30% to 50%; inactive = 30% or less;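 note: compound concentration not given in the record; tested on top of an EC20 dose of dopamine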
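PathHunter D2 cells, attached overnight at 37 deg C, received compound in DMSO plus dopamine at EC20 (50 nM final) for 90 min at 37 deg C. Beta-arrestin recruitment was read as luminescence after 1 h with detection reagent at ambient temperature.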
TRPML1 agonist = human mucolipin-1 channel agonism; Q9GZU1; TRPML1-expressing cells, Ca2+ dye fluorescence, FDSS; host cell line not named in the record; reference of the full effect not given here; activation, % (concentration not given with the values); 410,000 tested, 0.12% active; in the data active = activation above about 50%; inconclusive = about 30% to 50%; inactive = below about 30%; note: 0% is about no effect; the text of the record puts the active cut at 80%
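Agonist activity was taken from a 110 s kinetic Ca2+ dye read on the FDSS after pinning compounds onto TRPML1-DL cells. The cells were seeded at 1,500/well with Tet inducer, incubated about 16 h, then dye-loaded at room temperature.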
TRPML1 inh = inhibitors of human TRPML1 channel; TRPML1-inducible cells, Ca2+ dye fluorescence, FDSS; hits give low values; inhibition of EC80 agonist-evoked calcium signal; activity change, negative = inhibition, % (concentration not given with the values); 390,000 tested, 0.02% active; in the data active means activity change below about -50%; inconclusive means about -30% to -50%; inactive means above about -30%;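 note: stimulus is agonist 54-4 at its EC80 concentration; % is set by controls: 0 for no effect and ±100 for the full control effect; compound concentration not given in the record; the text of the record puts the active cut at -80%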
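Calcium fluorescence in TRPML1-DL cells induced overnight with Tet: a 110 s read after compound pin addition, then a 110 s antagonist read after challenge with 54-4 at 4 uM final (EC80).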
Active calls of the source: *; ? = inconclusive; . = not tested or not shown; & = joins results of further samples; [ ] = another dose, or the depositor's remark.

Compound,Six1-Eya2 inh,D2 agonist,PINK1 expr mod,D2 PAM,TRPML1 agonist,TRPML1 inh
Fc1ccc(-c2ccc(NCCN3CCOCC3)nn2)cc1,1,5.8,1.6%,-5,0.2,-18
O=C(NC1CCN(C(=O)Nc2ccccc2Cl)CC1)c1ccco1,7,-0.1,-1.1%,-3,0.2,-5
Cc1ccc2nsnc2c1NC(=S)NC(=O)c1ccco1,-8,-3.2,0.0%,-1,-0.4,7
Cc1cc(NC(=O)CCC(=O)N(Cc2cccs2)C(C(=O)NC2CCCC2)c2ccncc2)no1 (stereo unspecified),0,0.6,-0.4%,-7,-0.5,-24
CCc1ccc(OCC(=O)N/N=C\c2ccco2)c([N+](=O)[O-])c1,0,-1.9,1.1%,-15,-0.8,39
Cc1cc(C(=O)OCC(=O)Nc2ccccc2Br)c(C)o1,13,-0.6,-2.5%,-1,2.8,1
CCCNC(=O)C1(C)CCN(C(=O)c2cc(F)cc(F)c2)C1 (stereo unspecified),0,-4.2,2.8%,-3,-0.8,.
Cc1ccc(C)c(NC(=O)Cn2cc(S(=O)(=O)c3ccc(F)cc3)c(=O)c3cc(F)ccc32)c1,.,.,1.8%,.,-0.6,13
O=C(NNC(=O)C1CCN(S(=O)(=O)c2c(Cl)cccc2Cl)CC1)c1ccccc1O,?,-3.6,-0.9%,12,0.5,9
Cc1cc(C)n2ncc(-c3cccc(Br)c3)c2n1,31,0.9,2.1%,4,2.3,13
CCCCCOC(=O)CSc1nc2sc3c(c2c(=O)n1-c1ccccc1)CC(C)(CC)OC3 (stereo unspecified),.,.,2.9%,.,0.0,6
O=C(N/N=C/c1cccs1)c1cccc(NC(=O)c2ccccc2Cl)c1,-24,0.6,1.8%,-13,2.1,19
Cc1ccc(NC(=O)CCNS(=O)(=O)c2ccccc2)c(C(=O)c2ccccc2)c1,1,0.3,0.1%,9,2.3,12
O=C(COC(=O)c1cc(Br)ccc1Cl)NC(=O)NCc1ccccc1,11,-2.7,0.4%,-1,-1.0,-5
O=C(CNC(=O)c1ccncc1)Nc1ccc(F)c(F)c1,4,-4.0,-3.4%,-22,0.6,16
CCOC(=O)/C=C/c1ccc2c(c1)S(=O)(=O)N(c1cccc(OC)c1)[C@H]2CC(=O)OCC,-2,4.9,0.9%,29,0.5&3.4,37
Cc1cc(SCNC(=O)c2ccccc2)nc(C(C)C)n1,-4,-3.4,0.0%,-11,0.9,9
Cc1cc(C)nc(N/N=C/c2cn[nH]c2-c2ccccc2)n1,-3,0.5,2.7%,-3,0.8,21
O=c1oc2ccccc2c2c1cnc1ccccc12,?,1.3,1.4%,.,-0.7,20
Cc1cc(SCC(=O)N(C)CC(=O)Nc2ccc(F)cc2)nc2ccccc12,-1,-3.4,4.6%,-28,1.6,20
Cc1nn(Cc2ccccc2)c(Cl)c1/C=C/C(=O)OC(C)C(=O)N1CCCC1 (stereo unspecified),-8,5.5,0.8%,7,2.5,8
Cc1c(C(=O)NCCN(C)C)oc2c1-c1nn(Cc3ccccc3Cl)cc1CC2,.,.,0.3%,.,1.2,10
COc1ccc(Oc2cn[nH]c2-c2ccc(OCC(=O)NN)cc2O)cc1,4,-0.2,2.2%,-3,0.4,8
Cc1cc(C(=O)C(C)OC(=O)c2ccc(NC(=O)CC#N)cc2)c(C)n1-c1ccc(OC(F)F)cc1 (stereo unspecified),-16,2.2,-1.6%,10,0.2,-22
COc1ccc(NC(=O)C2=CC(c3ccc(C)cc3)=NS(=O)(=O)N2C)cc1,-17,-0.4,2.7%,-11,1.2,2
COc1ccc(C(=O)NCCOc2cccc(Oc3ccccc3)c2)cc1OC,3,-3.5,-0.8%,1,1.2,3
COc1ccc(-c2nc(SCC(=O)NC3CCCC3)c(-c3ccccc3)[nH]2)cc1OC,.,.,0.1%,.,-0.4,0
CC(C)Cn1c(N)c(C(=O)NCCN2CCOCC2)c2nc3ccccc3nc21,7,0.8,0.2%[38.3 µM],-7,3.2,9
COc1ccc(NC(=O)CCCSc2nc(-c3ccco3)cc(C(F)(F)F)n2)cc1,.,.,5.3%,.,0.1,-1
Cc1cc(C)cc(N(C(=O)Cc2cccs2)C(C(=O)NC2CCCCC2)c2ccccn2)c1 (stereo unspecified),-8,-4.2,.,-38,1.0,-5
Clc1ccccc1CN1CCc2nc(N3CCN(c4ncccn4)CC3)ncc2C1,.,.,1.2%,.,1.6,-20
CCC(CC)c1nnc(NC(=O)C2=NNC(=O)CC2)s1,-1,-0.9,1.9%,-1,1.0,26
CCC1CCCCN1CCCNC(=O)Cn1cc2c(n1)-c1c(oc(C(=O)N3CCCC3)c1C)CC2 (stereo unspecified),2,3.8,0.3%,-28,0.0,-1
CN(C)c1nc(N)nc(Cn2ccnc2)n1,2,-2.3,1.1%,-11,-0.2,26
Cc1ccc(NC(=O)CCC(=O)N/N=C/c2coc3ccccc3c2=O)cc1,-7,-2.8,0.1%,-12,-0.9,2
COc1cc(/C=N/NC(=O)c2cccnc2)ccc1OC(=O)c1ccc2c(c1)OCO2,-1,4.3,7.6%,12,0.5,1
COc1cc2c(cc1OC)C1=C(C#N)CN(CC(=O)O)CN1CC2,-8,-3.4,-0.5%,-9,0.4,-1
O=C(Cc1ccccc1)N1N=C(c2ccncc2)CC1(O)C(F)(F)F (stereo unspecified),2,-6.2,-0.7%,-12,0.7,1
COc1ccc(OCCCC(=O)OC(C)C(=O)Nc2ccc(C)cc2)cc1 (stereo unspecified),2,-3.5,-3.2%,-2,1.2,-15
O=C(NCC1CCCO1)c1cnn2c(C(F)F)cc(C3CC3)nc12 (stereo unspecified),25,-2.8,-0.6%,5,1.6,-1
COC(=O)/C(C#N)=C/c1c(N2CCN(Cc3ccc4c(c3)OCO4)CC2)nc2c(C)cccn2c1=O,-4,-6.6,-1.9%,-7,-0.4,-2
O=C(CNc1ccccc1-c1ccccc1)NCc1ccccc1,-3,-2.1,0.7%,-8,0.5,27
CCCN(C(=O)Cc1coc2cc(C)c(C)cc12)c1c(N)n(Cc2ccccc2)c(=O)[nH]c1=O,-2,-3.1,4.9%,6,-0.2,11
CCOc1ccc(CCNC(=O)CSc2cc(=O)n(C)c3ccc(Cl)cc23)cc1OCC,-6,-4.8,1.4%&7.0%,-19,-0.2&0.5,-21&-4
COc1nsnc1N1CCOCC1,3,-1.3,2.1%,-4,-1.1,3
CCOC(=O)N1CCN(C2CCCN(C(=O)c3ccccc3N(C)C)C2)CC1 (stereo unspecified),-3,-3.6,3.3%,-4,0.0,-19
CCc1nn(C(CC)C(=O)NCCc2ccc(OC)cc2OC)c(=O)c2cc3occc3n12 (stereo unspecified),7,5.4,-0.6%,-16,1.6,9
CC(=O)c1cccc(NC(=O)C2CCN(S(=O)(=O)c3ccc4[nH]c(=O)ccc4c3)CC2)c1,.,.,-2.4%,.,1.0,47
Cc1cc(C)n(CC(=O)NNC(=O)c2cncc(Br)c2)n1,2,1.0,0.6%,-12,-0.3,8
Cc1ccccc1N=C1N=C(N)c2ccccc21,3,-3.4,3.9%,9,-0.7,-12
COc1ccccc1C(=O)NC(=O)Nc1cccc(Cl)c1,4,0.7,2.3%,-9,0.7,16
O=C(NCC1CCN(Cc2cccc(Cl)c2)CC1)C1CCCN(c2ncnc3c2nc2n3CCCCC2)C1 (stereo unspecified),-2,-2.1,2.2%,-22,0.9,-3
O=S(=O)(NC1CC(NS(=O)(=O)OCC(Cl)(Cl)Cl)C2CCCCC12)OCC(Cl)(Cl)Cl (stereo unspecified),0,0.0,0.0%,-1,-0.3,-6
Cn1c(CC(O)c2nc3ccccc3n2C)nc2ccccc21 (stereo unspecified),-2,-6.1,-1.2%,-6,0.0,-8
COc1cccc(COC(=O)Nc2ccccc2F)c1,2,3.8,1.0%,1,4.0,5
Cc1cccc(NC(=O)C2CCCN(S(=O)(=O)c3ccc(-n4cnnn4)cc3)C2)c1 (stereo unspecified),1,-3.7,3.3%,-5,-0.1,0
CC(=O)NC12CC3CC(C1)CC(C(=O)N1CCN(S(=O)(=O)c4ccc([N+](=O)[O-])cc4)CC1)(C3)C2,4,4.4,1.4%,6,0.0,5
O=C(c1ccco1)n1nc(-c2ccc(Cl)cc2)nc1NCc1ccccc1,.,.,5.4%,.,-0.5,24
Cc1ccc(OCC(=O)NCC2(N3CCOCC3)CCCCC2)cc1C,.,.,0.0%,.,0.4,-15
Cc1ccccc1NC(=O)C1CC(=O)N(c2ccccc2F)C1 (stereo unspecified),-10,2.3,-2.5%,-16,1.0,10

The results go on:
Compound,Six1-Eya2 inh,D2 agonist,PINK1 expr mod,D2 PAM,TRPML1 agonist,TRPML1 inh
COC(=O)CCC(=O)N1CCCC(N2CCN(c3ccc(OC)cc3)CC2)C1 (stereo unspecified),7,6.3,2.3%,-1,0.3,2
Cc1[nH]n2c(=O)cc(C(C)(C)C)nc2c1-c1ccccc1,-15,0.3,-1.2%,-3,1.1,-13
COc1ccc(NC(=O)c2c(NCc3ccc(C)o3)sc3c2CCC(C)C3)cc1 (stereo unspecified),.,.,5.7%,.,0.7,5
CCn1c(COC(=O)CNC(=O)c2cc(OC)c(OC)c(OC)c2)nc2cc(S(=O)(=O)N(C)C)ccc21,-2,1.7,-2.3%,-1,0.7,16
Cc1c(Cl)cccc1NC(=O)C(C)n1nnc2sc3c(c2c1=O)CCCC3 (stereo unspecified),.,.,1.5%,.,1.3,14
COc1ccc(NC(=O)CN2CCN(c3ccc(Cl)cc3)CC2)c(OC)c1,-15,-1.8,0.5%,-1,0.9,4
COc1ccc(CCN(C)Cc2ccc(OC)c(OCc3ccccc3)c2)cc1OC,-10,-0.8,-0.3%[38.3 µM],-20,0.5,8
COC(=O)c1ccc(OC)c(CN2CCCN(Cc3ccc(C)cc3)S2(=O)=O)c1,.,.,-1.3%,.,-0.2,-22
CC(=O)c1cn(CC(=O)NCc2ccc3c(c2)OCO3)c2ccccc12,-5,-2.9,4.1%,-22,1.1,12
CC1C(=O)N(Cc2cn(CC3CCCCC3)nn2)CCS(=O)(=O)N1Cc1ccc(-c2ccc(F)nc2)cc1 (stereo unspecified),8,0.1,1.2%,-1,-0.3,-12
Cc1ccc2nc(-c3ccc(C)c(NC(=O)Cc4ccccc4)c3)oc2c1,.,.,-0.1%,.,0.5,-19
CN(C)c1ccc(C=NCCc2ccc(S(N)(=O)=O)cc2)cc1,0,-1.8,-0.2%,-3,-0.5,-10
NC(=O)NC(=O)COC(=O)c1ccc2c(c1)C(=O)N(Cc1ccccc1)C2=O,9,-7.2,-0.3%,-15,-0.6,7

Source: PubChem (National Center for Advancing Translational Sciences (NCATS))
